LASV entry inh – blocks Lassa virus binding to or entry into cells. Lassa virus pseudotype entry inhibition, cell reporter; control for the full effect not named in the record. Potency, µM (top dose mostly 37.9 µM), for inactives: at the highest dose activity change, negative = inhibition, actives largely listed as inhibitors. 300,000 tested, 1.2% active. AID 540256; active means well fitted inhibition curve with a large enough effect; inconclusive means small, poorly fitted or top-dose-only effect, or effect the other way; inactive means flat fitted curve, though single readings scatter; tested in HEK293 cells; further: on the % scale 0 is the no-effect control and ±100 the full control effect; nearly all actives have a fitted effect of over 50% in size; luciferase read-out
NS1 inh – influenza NS1 inhibition; S. cerevisiae slowed by influenza A NS1, growth recovery by OD600; Potency, µM (top dose mostly 46.1 µM), inactives show at the top dose activity, positive = more growth; 270,000 tested, 0.4% active; AID 2326; further: actives are rising curves; nearly all actives have a fitted effect of over 50% in size
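Read-out: OD600 growth recovery of NS1-expressing budding yeast. Cells grown overnight at 30C in -URA glucose medium, washed, resuspended and diluted 1:100 in 2% galactose assay medium, pH 6.0. Same strain lacking NS1 served as positive control.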
Cruzain inh Det – blocks cruzain activity in presence of Triton detergent; P25779; purified cruzain, Z-FR-AMC fluorescence, 0.01% Triton; Potency, µM, for the others: max response, negative = inhibition, actives largely listed as inhibitors; 200,000 tested, 0.43% active; AID 1478; active means well fitted curve in the direction sought with a large enough effect; inconclusive means small, poorly fitted or top-dose-only effect, or another doubt; inactive means no such curve, though single readings can be large; an effect the other way counts as inactive or inconclusive;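 further: plate controls were neutral wells for no effect and buffer without enzyme for full effect; nearly all actives have a fitted effect of over 40% in size; top concentration of the series not given in the record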
Target sequence (P25779 123-467 limits assumed): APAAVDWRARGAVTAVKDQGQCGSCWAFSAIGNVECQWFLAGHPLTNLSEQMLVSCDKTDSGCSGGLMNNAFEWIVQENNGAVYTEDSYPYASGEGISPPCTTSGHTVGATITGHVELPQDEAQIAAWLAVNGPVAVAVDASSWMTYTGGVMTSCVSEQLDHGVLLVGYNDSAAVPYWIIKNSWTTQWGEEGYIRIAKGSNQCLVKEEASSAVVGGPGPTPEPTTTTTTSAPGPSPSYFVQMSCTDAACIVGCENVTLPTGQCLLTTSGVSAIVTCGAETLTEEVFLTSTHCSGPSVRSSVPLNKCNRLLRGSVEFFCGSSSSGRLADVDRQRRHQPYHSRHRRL
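Purified cruzain (1.5 nM final) was preincubated with compounds for 15 min at room temperature in 100 mM sodium acetate pH 5.5, 5 mM DTT, 0.01% Triton X-100. Reaction started with 2 uM Z-FR-AMC; AMC fluorescence change over 60 s gave activity.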
Cruzain noTriton – inhibitors of Trypanosoma cruzi cruzain without detergent | purified cruzain, Z-FR-AMC fluorescence, no detergent | 200,000 tested, 2.3% active | Potency, µM, for the others: max response, negative = inhibition, most hits filed as inhibitors | P25779; active means well fitted curve in the direction sought with a large enough effect; inconclusive means small, poorly fitted or top-dose-only effect, or another doubt; inactive means no such curve, though single readings can be large; an effect the other way counts as inactive or inconclusive;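 further: plate controls were enzyme without inhibitor for no effect and buffer without enzyme for full effect; nearly all actives have a fitted effect of over 40% in size; top concentration of the series not given in the record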
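Purified cruzain at 1.5 nM, pre-incubated 15 min with compound at room temperature in 100 mM sodium acetate pH 5.5, 5 mM DTT, 0.00005% Triton X-100. Reaction started with 2 uM Z-FR-AMC; AMC fluorescence increase over 60 s gives rate.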
StopGo reporter – lowers the luciferase signal of an FMDV 2A StopGo reporter. human cells with a luciferase reporter of 2A StopGo recoding; control for the full effect not named in the record. Potency, µM (top dose mostly 57.9 µM), for inactives: at the highest dose signal change, negative = less light. 410,000 tested, 1.2% active; active = well fitted falling curve with a large enough effect; inconclusive = small, poorly fitted or top-dose-only effect; inactive = no such curve, though single readings can be large or run the other way; tested in HEK293T cells; further: on the % scale 0 is the no-effect control and ±100 the full control effect; nearly all actives have a fitted effect of over 45% in size; luciferase light after 4 h
RE007 growth inh – less growth of the S. pombe RE007 Vpr strain. 360,000 tested, 0.21% active. AID 651644. Potency, µM (titrated, usually from 92.2 µM), for inactives: top-dose activity change, negative = less growth. S. pombe RE007 Vpr strain, BacTiter-Glo ATP luminescence, 24 h; control for the full effect not named in the record; active = well fitted falling curve with a large enough effect; inconclusive = small, poorly fitted or top-dose-only effect; inactive = no such curve, though single readings can be large or run the other way;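 further: on the % scale 0 is the no-effect control and ±100 the full control effect; nearly all actives have a fitted effect of over 50% in size; the assay follows cell death caused by Vpr and the record does not say whether a fall means rescue or toxicity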
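Fission yeast RE007 carrying one integrated HIV-1 vpr copy, seeded at OD 0.01 in PMG+AL medium with 23 nL pinned compound. Grown 24 h at 30 degrees; viability read by BacTiter-Glo luminescence after 5 min.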
MARV entry inh – inhibitors of Marburg virus binding or cell entry. Marburg virus pseudotyped entry inhibition, cell reporter; control for the full effect not named in the record; about a third of the inactives were read at about 46 µM. Potency, µM (highest dose often 37.8 µM), inactives show at the top dose activity change, negative = inhibition, usual class: inhibitors. 300,000 tested, 1.8% active. AID 540276; active = well fitted inhibition curve with a large enough effect; inconclusive = small, poorly fitted or top-dose-only effect, or effect the other way; inactive = flat fitted curve, though single readings scatter; tested in HEK293 cells; about a fifth of its hits are not listed in these tables; further: on the % scale 0 is the no-effect control and ±100 the full control effect; luciferase read-out
SARS PLP yeast – SARS-CoV PLP inhibition in yeast; Potency, µM (doses to about 32.9 µM), without a hit: top-dose activity, positive = growth rescue; 330,000 tested, 0.19% active; S. cerevisiae expressing SARS-CoV PLpro, growth rescue; control for the full effect not named in the record; AID 485353; further: 0% is about no effect; nearly all actives have a fitted effect of over 55% in size; growth read by luminescence after 48 h
Active calls of the source: *; ? = inconclusive; / = no result given; & = joins results of further samples; [ ] = remark or other dose. Unless noted, the call rests on the fitted dose curve; in most records, active means well fitted rising curve with a large enough effect; inconclusive means small, poorly fitted or top-dose-only effect; inactive means no such curve, though single readings can be large or run the other way. Potency means the concentration at half of the fitted maximal effect. An unsorted share of the library. About 4.8% of those tested had a hit in this group.

SMILES	LASV entry inh	NS1 inh	Cruzain inh Det	Cruzain noTriton	StopGo reporter	RE007 growth inh	MARV entry inh	SARS PLP yeast
CN(C)CCN(C(=O)c1ccc(Br)s1)c1nc2cc3c(cc2s1)OCCO3	16%[46.1 µM]	/	/	/	1%	-8%	-3%[46.1 µM]	3%
Cc1[nH]c2ccc(O)cc2c1CCN	3%	-1%	1.5%&-1.8%	8%&1%	-17%&-12%&2%	8%[18.4 µM]	?	/
Clc1cccc(Cl)c1COn1nnc2ccccc21	-27%[14.3 µM]	-68%	3.6%	2%	47%[activator]	-19%	8%	-3%
Cc1ccccc1-c1nnc(-c2cccs2)o1	/	-15%	/	/	62%[activator]	?	/	-2%
CCOC(=O)c1cnc2nc(Cc3ccccc3)[nH]n2c1=O	26%	0%	3.7%	-5%	-12%	-19%	-1%	-3%
O=S1(=O)C=C(Sc2nnc(-c3ccccc3)o2)c2ccccc21	21µM*	-143%	-3.0%	3%	10µM*	10µM*	5.8µM*	-20%
CCn1cc(C(=O)Nc2cccc(Cl)c2)c2cc(OC)c(OC)cc2c1=O	-30%[46.1 µM]	/	-11%	?	-16%	/	-29%[46.1 µM]	/
CCc1ccc(S(=O)(=O)c2nnn3c2nc(NC(C)C)c2cc(Cl)ccc23)cc1	/	/	-1.5%	-6%	31%[activator]	/	-19%[46.1 µM]	/
COc1ccc(NC2SC(=O)N(CC(=O)O)C2=O)cc1 (stereo not drawn)	7%	-1%	-1.4%	-3%	20%	14%	?	1%
Cc1cc(NCCO)nc(-n2nc(C)cc2C)n1	2%	-5%	4.9%	10%	1%	3%	12%	0%
O=C(Cn1c(=O)n(-c2ccc(F)cc2)c(=O)c2sc3ccccc3c21)N1CCCC1	-13%[46.1 µM]	/	-8.3%	5%	-4%	/	7%[46.1 µM]	/
CC(C)Cc1nc(C#N)c(N2CCC(C(N)=O)CC2)o1	5%	-4%	-4.0%	-9%	2%	7%	-3%	-17%
CC1CC1C(=O)OCC(=O)Nc1ncc(Cl)cc1Cl (stereo not drawn)	1%	/	/	/	17%	-6%	2%[46.1 µM]	-3%
Cc1cc(C)n(S(=O)(=O)c2ccc3ccccc3c2)n1	3%	-79%	-6.4%	2%	16%	16%	-24%	-9%
CC(NC(=O)c1cc(S(=O)(=O)N2CCOCC2)cn1C)c1ccccc1 (stereo not drawn)	/	7%	/	/	-16%	15%	/	-9%
Cc1[nH][nH]c(=O)c1C(c1ccc(-c2cccc(C(=O)O)c2)o1)c1c(C)[nH][nH]c1=O	7%[46.1 µM]	9%	/	/	2%	2%	-2%[46.1 µM]	0%
CCOc1ccc(N(CC(=O)Nc2cccc(C)c2)S(C)(=O)=O)cc1	?	-6%	/	/	38%[activator]	-10%	?	3%
[O-]c1n[n+](-c2ccc(Cl)cc2)cc2ccccc12	-13%	/	/	/	6%	-6%	-12%[14.2 µM]	-1%
O=C(Cc1nc2ccccc2[nH]1)c1ccc([N+](=O)[O-])cc1	-25%	7%	/	/	0%	7%	-9%[46.1 µM]	0%
CCc1cccc(NC(=O)CSc2n[nH]c(-c3ccccc3Cl)n2)c1	12%[46.1 µM]	/	-4.5%	-8%	?	/	/	/
CCOc1ccc(NC(=O)COc2coc(CN3CCc4ccccc4C3)cc2=O)cc1	-14%	/	/	/	-23%	-18%	7%	7%
COc1ccc(C(=O)NNC(=O)C(=O)Nc2ccc(C)c(Cl)c2)cc1	?	/	/	/	-1%	-18%	-2%	0%
Cc1ccc(OCC(=O)Oc2ccccc2[N+](=O)[O-])cc1	10%	/	/	/	-11%	4%	-6%	/
O=C(O)c1cccc(C(=O)O)c1Br	/	-11%	/	/	-4%	-9%	/	-5%
Cc1ccc(CCNC(=O)c2cc3c(=O)oc4ccccc4c3s2)cc1	0%[46.1 µM]	/	0.1%	12%	-8%	/	22%[46.1 µM]	/
O=C(C[n+]1cccc(CNC(=O)c2ccc(OC(F)F)cc2)c1)c1ccccc1	-8%	?	/	/	-7%	-10%	20%[46.1 µM]	1%
FC(F)(F)c1cccc(NC(=S)NCc2ccc(Cl)cc2)c1	-17%	/	/	/	-27%	16%	?	-1%
Cc1ccc(C(=O)OCC(=O)N(C)C2CCS(=O)(=O)C2)cc1S(=O)(=O)N1CCCCC1 (stereo not drawn)	-9%	/	/	/	-8%	-15%	-7%	5%
O=C(NS(=O)(=O)c1ccccc1)c1ccccc1F	-1%	4%	-3.0%	13%	-4%	4%	-6%	3%
COc1ccc(-n2cc(-c3ccccc3)[nH]c2=S)cc1	-26%	-19%	-2.3%	-7%	0%	15%	3%	-12%
Cc1ccc(C(=O)c2ccccc2C(=O)OCC(=O)Nc2ccc(SC(F)F)cc2)cc1	11µM*	?	-2.9%	-15%	-7%	14%	?	4%
COc1ccccc1NS(=O)(=O)c1cc(C(=O)NCC2CCCO2)ccc1C (stereo not drawn)	-10%	/	/	/	62%[activator]	-3%	25%	/
CCc1ccc(NC(=O)C(=O)NCCN2CCN(S(=O)(=O)c3ccccc3)CC2)cc1	-11%	-3%	/	/	3%	-10%	-8%	0%
Cc1cc(NC(=O)Nc2ccccc2)n(-c2ccccc2)n1	/	-9%	3.4%	6%	13%	/	-5%	/
Cc1cc(C)cc(NC(=O)C2CCCN2S(=O)(=O)c2ccc3c(c2)CCCC(=O)N3)c1 (stereo not drawn)	-2%[46.1 µM]	/	0.7%	10%	?	/	/	/
O=C(NCCCN1CCOCC1)C(Cl)(Cl)Cl	16%	20%	1.2%	-5%	-22%	9%	0%	8%
COc1ccc(Cn2c(-c3ccco3)nc3oc4ccccc4c(=O)c3c2=O)cc1	0%	1%	-4.8%	-5%	67%[activator]	-10%	13%[46.1 µM]	-3%
CCOC(=O)n1c(=O)n(Cc2cccc(C)c2)c2ccccc21	-2%	/	/	/	-2%	20%	?	-12%
CCOC(=O)c1ccccc1NC(=O)C1CSC2(C)CCC(=O)N12 (stereo not drawn)	-1%[46.1 µM]	-1%	/	/	-4%	9%	22%[46.1 µM]	1%
COC(=O)CCCNC(=O)c1ccc(S(=O)(=O)NCc2ccco2)cc1	13%	/	/	/	26%	-5%	-21%	-1%
Cn1c(CNC2CCCCC2)c(C#N)c2ccccc21	12%	3%	1.2%	-2%	14%	-8%	-17%	1%
CCCCC(=O)Nc1ccc(C(=O)Nc2nc(CC(=O)OCC)cs2)cc1	?	-5%	-4.4%	-1%	?	-7%	1%	-10%
CCCc1nn2c(=O)cc(COC(=O)c3cccc(NC(=O)COc4ccccc4C)c3)nc2s1	?	/	2.2%	-15%	14µM*	/	/	/
C=CCOC(=O)C1=C(C)Nc2nc3ccccc3n2C1c1ccncc1 (stereo not drawn)	4%	-5%	-2.5%	6%	-28%	12%	?	-2%
Clc1ccccn1	/	/	3.0%	-4%	-17%	-15%	/	-5%
CN=c1scc(-c2ccc([N+](=O)[O-])cc2)n1/N=C/c1ccco1	-3%	1%	/	/	47%[activator]	-4%	4%[46.1 µM]	-3%
COc1cccc(C2C(C(=O)Nc3cccnc3)=C(C)Nc3nc(SCc4ccccc4)nn32)c1 (stereo not drawn)	-25%[46.1 µM]	/	0.3%	-2%	-15%	/	25%[46.1 µM]	/
COc1ccc(CCNC(=O)c2ccc3nc4cc(Cl)ccc4c(=O)n3c2)cc1OC	/	0%	/	/	?	-9%	/	0%
C=CCN(c1ccccc1)S(=O)(=O)c1c(C)[nH]c(=O)[nH]c1=O	1%	/	/	/	1%	0%	12%[46.1 µM]	0%
CCCOc1ccccc1C1Oc2nc(SC)nnc2-c2ccccc2N1C(C)=O (stereo not drawn)	?	/	-3.0%	-3%	-18%	/	-16%[46.1 µM]	/
COc1ccc(OCC(=O)N/N=C(\C)CC(=O)Nc2ccc(NC(C)=O)cc2)cc1	?	0%	/	/	9%	9%	-8%	-3%
CCCCCCCCCCCCCCCC[N+](C)(C)Cc1ccc(F)cc1	?	/	/	/	-9%	?	?	/
Cc1ccc(NC(=O)c2cc(-n3cnnc3)ccc2Cl)c(C)c1	-5%	?	-2.9%	-6%	-10%	0%	0%	7%
O=C1CCC[C@@H]2CC(Nc3ccc(F)cc3F)C[C@@H]3CCN1[C@H]23 (stereo partly drawn)	/	/	0.6%	-1%	0%	4%	/	15%
O=c1cc(-c2ccccc2)[nH]c2nc3ccccc3n12	?	-52%	-1.2%	?	-39%	-16%	5.8µM*	-17%
NC(=O)CCCc1nc(-c2ccccc2Cl)no1	0%	-5%	3.6%	2%	38%[activator]	-6%	7%	29%
CN(Cc1ccccc1)C(=O)COC(=O)c1cc(S(=O)(=O)N(C)C)ccc1N1CCCC1	-24%	/	/	/	14%	8%	10%[46.1 µM]	1%
CCn1c(=O)cc(O)c2c(=O)n(C)c(=O)n(C)c21	2%	2%	0.3%	-2%	-2%	-2%	-1%[46.1 µM]	4%
CN(C)S(=O)(=O)c1cccc(C(=O)Nc2cc(Cl)ccc2O)c1	-26%	-57%	-4.4%	9%	-18%	17%	3%	-6%
CCOC(=O)N1CCN(S(=O)(=O)c2ccc(F)c(C(=O)Nc3ccc(C(C)C)cc3)c2)CC1	-25%&-22%	21%	-3.2%	?	3%	13%	-4%&-20%	-8%

Next structures follow:
SMILES	LASV entry inh	NS1 inh	Cruzain inh Det	Cruzain noTriton	StopGo reporter	RE007 growth inh	MARV entry inh	SARS PLP yeast
COc1ccc(NC(=O)CCC(=O)NCc2ccco2)c([N+](=O)[O-])c1	/	26%	/	/	-8%	-1%	/	-3%
CC(=O)Nc1cccc(NC(=O)c2ccc(Br)cc2)c1	-7%[46.1 µM]	/	/	/	16%	9%	0%[46.1 µM]	-2%
Oc1c(N=NC(=S)Nc2ccccc2F)c2ccccc2n1Cc1ccc(Cl)cc1	?	/	/	/	-13%	19%	?	2%
CS(=O)(=O)N(Cc1ccccc1)c1ccc(C(=O)Nc2cccnc2)cc1	10%	-3%	-0.5%	-8%	/	13%	1%	6%
c1cnc2nc3c4ccccc4c4ccccc4c3nc2c1	?	/	/	/	-8%	0%	?	/
CCOC(=O)Cn1nnc(-c2ccc(SC)cc2)n1	-24%	-2%	0.1%	5%	59%[activator]	-1%	2%	1%
CNCCc1c[nH]c2ccc(O)cc12	8%	0%	-3.3%&1.1%	-5%&4%	0%	2%	?	/

Screening results (PubChem)
